# Assay outcomes: PubChem BioAssay, National Center for Advancing Translational Sciences (NCATS)
# Menin-MLL FL inh: displaces fluorescein MLL peptide from human menin; 290,000 tested, under 10 active; AID 1766; Fluorescence polarization, fluorescein-MLL peptide displacement from menin; FP activity change, % at 61.4 µM; inconclusive = falling polarisation curve, or a change in total fluorescence; inactive = total fluorescence flat and polarisation flat or rising; no compound was filed as active; the % refers to the polarisation; negative = inhibition;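 also: % of control where 0% means no effect; inhibitors lower the polarisation; unlabelled MLL peptide was the positive control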
# gsp antag: gsp mutant antagonism. gsp-mutant cells, cAMP HTRF, 30 min; control for the full effect not named in the record. Potency, µM (doses to about 76.9 µM), without a hit: at the highest dose activity change, negative = inhibition, most hits filed as inhibitors. hit rate 0.4% among 340,000. AID 624288; active = falling curve of any shape with a large fitted effect; inconclusive = falling curve, mostly with a smaller effect; inactive = flat or rising curve; cell line not stated here;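 also: intracellular cAMP measured with PDE inhibitor Ro 20-1724 present during compound exposure; potency is read from the fitted curve at half-maximal effect; % is scaled to controls: 0 for no effect and ±100 for the full control effect; nearly all actives have a fitted effect of over 65% in size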
#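 HTRF cAMP measurement after 30 min RT detection following 30 min, 37C compound treatment alongside […] (added as 300 uM solution) in G418-selected cells seeded at 2000/well and grown 16–24 h.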
# D2 potentiator: human D2 receptor positive allosteric modulation | DiscoveRx D2 beta-arrestin cells, luminescence, 90 min; 100% = 57 uM dopamine signal | potentiation, % (test concentration not listed) | hit rate 0.23% among 360,000 | AID 624464; active = potentiation of 50% or more; inconclusive = 30% to 50%; inactive = 30% or less;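 also: compound concentration not given in the record; tested on top of an EC20 dose of dopamine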
#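 D2 cells co-treated with compound plus 50 nM dopamine (EC20) for 90 min at 37 deg C to detect potentiation. Beta-arrestin recruitment was read as enzyme-fragment luminescence after 1 h at ambient temperature. Full response was set by 57 uM dopamine.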
# gsp agonist: agonists of gsp mutant (McCune-Albright syndrome). gsp mutant cells, cAMP HTRF, 30 min; control for the full effect not named in the record. AID 624287. Potency, µM (series often up to 76.9 µM), without a hit: top-dose activation (cAMP increase), usual class: activators. hit rate 0.13% among 340,000; active = well fitted activation curve with a large enough effect; inconclusive = small, poorly fitted or top-dose-only effect, or another doubt; inactive = no such curve, though single readings can be large or run the other way; cell line not stated here;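 also: phosphodiesterase inhibitor Ro 20-1724 added with compounds to block cAMP breakdown; potency is read from the fitted curve at half-maximal effect; nearly all actives have a fitted effect of over 60% in size; about a fifth of the inactives were tested at one dose only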
#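 Cells stably selected in G418 were plated at 2000/well, grown 16-24 hr, then given compounds in DMSO with the PDE inhibitor […] (300 uM solution added) for 30 min at 37C; cAMP was read by HTRF.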
# TRPV1 potentiator: potentiators of human vanilloid receptor 1 (TRPV1); TRPV1-expressing cells, Fluo-8 calcium influx, capsaicin EC20 potentiation; host cell line not named in the record; control for the full effect not named in the record; potentiation, % at 8.33 µM; hit rate 0.02% among 320,000; AID 540277; active means potentiation above 80%; inconclusive means 30% to 80%; inactive means below 30%; also: 0% is about no effect
# Target sequence (Q8NER1 whole entry, looked up): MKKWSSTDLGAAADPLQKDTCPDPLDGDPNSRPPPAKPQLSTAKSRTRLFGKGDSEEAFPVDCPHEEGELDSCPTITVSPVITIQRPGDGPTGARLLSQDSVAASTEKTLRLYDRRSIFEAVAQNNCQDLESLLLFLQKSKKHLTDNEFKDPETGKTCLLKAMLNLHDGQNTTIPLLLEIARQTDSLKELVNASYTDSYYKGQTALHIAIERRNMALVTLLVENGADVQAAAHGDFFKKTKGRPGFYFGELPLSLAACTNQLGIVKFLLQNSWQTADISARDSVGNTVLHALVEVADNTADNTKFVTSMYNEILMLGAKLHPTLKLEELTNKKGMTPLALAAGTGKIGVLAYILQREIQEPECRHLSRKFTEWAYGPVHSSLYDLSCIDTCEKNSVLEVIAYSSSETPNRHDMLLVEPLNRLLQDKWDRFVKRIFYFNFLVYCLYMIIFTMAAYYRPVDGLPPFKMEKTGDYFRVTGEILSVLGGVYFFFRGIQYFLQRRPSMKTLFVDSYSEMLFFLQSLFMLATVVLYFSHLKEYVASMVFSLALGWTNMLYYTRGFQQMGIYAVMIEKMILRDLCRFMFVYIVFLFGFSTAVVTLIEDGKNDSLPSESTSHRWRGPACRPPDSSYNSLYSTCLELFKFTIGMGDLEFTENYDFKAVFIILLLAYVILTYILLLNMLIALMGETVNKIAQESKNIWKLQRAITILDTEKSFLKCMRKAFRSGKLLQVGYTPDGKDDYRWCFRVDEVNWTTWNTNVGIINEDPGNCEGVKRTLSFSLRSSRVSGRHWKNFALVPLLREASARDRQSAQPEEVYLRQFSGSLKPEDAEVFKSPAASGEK
#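 TRPV1-expressing cells were cultured overnight at 35.5C and loaded with Fluo-8 calcium dye for 40 to 90 min at room temperature. After a 10 s baseline, compound was added and calcium influx was read kinetically for 3 min (ex 480/em 520 nm).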
# Sfp inh: Sfp phosphopantetheinyl transferase inhibition; Biochemical Sfp PPTase activity, qHTS; Potency, µM, without a hit: max response, negative = inhibition, actives largely listed as inhibitors; hit rate 3.5% among 310,000; Q9F4F7; active = well fitted inhibition curve with a large enough effect; inconclusive = small, poorly fitted or top-dose-only effect, or another doubt; inactive = no such curve, though single readings can be large or run the other way;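 also: the enzyme is Sfp with the accession as filed and its product quenches rhodamine fluorescence; potency is read from the fitted curve at half-maximal effect; 0% = enzyme reaction without inhibitor and -100% = no enzyme wells; top concentration of the series not given in the record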
#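 Fluorescence-quenching assay with 15 nM Sfp, 5 uM rhodamine-CoA and 12.5 uM BHQ-2-labelled ybbR peptide in pH 7.6 Hepes/MgCl2 buffer. Enzyme was pre-incubated with compound for 15 min at room temperature. Rate was taken from the 30-min fluorescence change (525/598 nm).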
# ClpP mod: qHTS Assay for Activators of ClpP; purified B. subtilis ClpP, FRET peptide cleavage, 20 min; ATP-dependent Clp protease proteolytic subunit (Bacillus subtilis (strain 168)), P80244; hit rate 1.9% among 340,000; Potency, µM (titrated, usually from 57.5 µM), without a hit: at the highest dose activity change, negative = active; active = well fitted falling curve with a large enough effect; inconclusive = small, poorly fitted or top-dose-only effect; inactive = no such curve, though single readings can be large or run the other way; also: potency is read from the fitted curve at half-maximal effect; the source files actives as falling curves though it sought activators and does not explain the sign; nearly all actives have a fitted effect of over 65% in size; many hits overshoot -100%
# Target sequence (P80244 whole entry, looked up): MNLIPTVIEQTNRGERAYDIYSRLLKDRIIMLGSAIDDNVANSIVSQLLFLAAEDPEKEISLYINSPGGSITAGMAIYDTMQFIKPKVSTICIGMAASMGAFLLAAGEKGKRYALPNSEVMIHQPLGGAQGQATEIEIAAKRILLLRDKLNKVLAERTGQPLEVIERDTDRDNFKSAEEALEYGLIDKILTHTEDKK
#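 Purified B. subtilis ClpP, 10 microg/mL final in Tris/HCl pH8 with KCl, BSA, glycerol and Tween-20, cleaved an Abz/nitrotyrosine-quenched decapeptide. Fluorescence (ex 320, em 430) was read at 0 and 20 min at room temperature. Delta was normalized to 5.8 microM ADEP and DMSO/no-enzyme controls.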
# Active calls of the source: *; ? = inconclusive; / = not tested or not shown; & = joins results of further samples; [ ] = dose if it differs, or a comment. The order is random. About 5.1% of those tested had a hit in this group.
SMILES,Menin-MLL FL inh,gsp antag,D2 potentiator,gsp agonist,TRPV1 potentiator,Sfp inh,ClpP mod
COc1ccc(NC(=O)c2ccc(CNc3c(NC4CCCCC4)c(=O)c3=O)cc2)c(OC)c1,0.8,-9%&-3%,-9&-9,-32%&8%,29,13%,1.3%&19%
COc1ccccc1NC(=O)Nc1nc(CC(=O)NCc2ccccn2)cs1,/,-9%,-27,4%,-13,/,3.6%
CCOc1ccc(C(=O)CCC(=O)N2CCC(C(=O)OC)CC2)cc1,?,-9%,1,2%,1,15%,-2.3%
O=C(Cc1ccccc1)Nc1ccccc1C(=O)O,1.1,?,-11,2%,19,7%,-9.0%
CCCCCOC(=O)C1[C@H]2C(=O)N(c3ccccc3CC)C[C@]23C=C[C@H]1O3 (stereo not given in full),2.7,3%,-11,2%,-7,1%,-0.7%
Cc1cc2ccccc2cc1C(=O)c1ccccc1,/,-4%,-3,17%,/,/,/
O=C1c2cccc([N+](=O)[O-])c2C(=O)N1CCO,1.2,12%,-1,-24%,15,7%,1.0%
CCc1cccc(CC)c1NC(=O)COC(=O)c1cccc(-c2ccc(OC(C)=O)cc2)c1,0.7,3%,-11,2%,-14,10%,-6.2%
CCN(C(=O)C1CCCN(c2nc(-c3ccc(OC)cc3)no2)C1)c1ccc(OC)cc1 (stereo not given),-2.0,35µM*,-2,-21%,-7,3%,1.4%
O=C(O)c1cccc2c1C(=O)N(c1ccccc1)C2,-3.5,0%,2,6%,6,6%,/
Cc1c(C(=O)Nc2ccccc2)cnn1-c1ccccc1,/,2%,-9,4%[15.4 µM],/,/,0.5%
COc1ccc(N2C(=O)CC(N(CCc3ccccc3)C(=O)c3ccccc3)C2=O)cc1 (stereo not given),-5.4,-33%,-12,9%[15.4 µM],1,11%,2.2%
C[C@H](CO)N1C[C@H](C)[C@@H](CN(C)Cc2ccc(Cl)c(Cl)c2)Oc2c(NC(=O)CCC(F)(F)F)cccc2C1=O,/,?,4,?,/,/,-1.1%
O=S(=O)(N1CCOCC1)N1CCN(c2ccccc2F)CC1,2.0,-7%,0,3%,8,11%,-0.1%
O=Cc1ccc(N2Cc3ccccc3C2)cc1,-2.2,-9%,3,-9%,2,5%,/
COc1cc(C(=O)O/N=C(\N)c2ccncc2)cc(OC)c1OC,-1.5,8%,84*,-41%[inhibitor],6,32%[activator],-1.3%
Cc1ccc(C(NC(=O)NN2CCN(C)CC2)C(Cl)Cl)cc1F (stereo not given),1.3,-1%,-11,19%,24,10%,/
COc1cc(/C=C/C(=O)OCC(=O)NCCCc2ccccc2)cc(OC)c1OC,/,0%,1,19%[15.4 µM],/,/,-26%
CSCC[C@H](NC(=O)OC(C)(C)C)c1nnc(SCC(=O)Nc2ccc(C)cc2C)o1,1.9,-3%,-5,-40%[inhibitor],3,2%,-0.7%
CCn1c(N2CCN(C(c3ccccc3)c3ccccc3)CC2)nc2c1c(=O)[nH]c(=O)n2C,/,6%,8,3%,/,/,-1.1%
Cc1cccc(C2c3[nH]c4ccccc4c3CCN2C(=O)Cc2n[nH]c(C)n2)n1 (stereo not given),4.4,3%,-3,?,7,-1%,/
O=C(NCc1ccncc1)c1cccc(S(=O)(=O)N2CCc3ccccc32)c1,/,-24%,-3,-72%[inhibitor],-22,/,-4.3%
CCC(C)[C@H](NC(=O)Nc1cccc(Cl)c1)C(=O)O (stereo not given in full),5.2,8%,-4,1%,-14,11%,1.3%
Cc1nn(Cc2ccc(C(=O)N3CCOCC3)o2)c(C)c1Br,2.0,12%,-8,-27%,-19,-12%,1.0%
COc1ccc(-c2cc(C(=O)Nc3ccc(OC)cc3OC)no2)cc1,12,-5%,-5,7%,27,20%,-0.1%
# The list continues.
SMILES,Menin-MLL FL inh,gsp antag,D2 potentiator,gsp agonist,TRPV1 potentiator,Sfp inh,ClpP mod
Cc1ccc(-n2c(SCC(N)=O)nnc2-c2ccco2)cc1,-4.5,-2%,1,1%,-2,6%,-0.5%
NC(=O)C[C@@H]1N[C@]2(C(=O)Nc3ccccc32)[C@@H]2C(=O)N(c3cc(C(F)(F)F)ccc3Cl)C(=O)[C@H]12,7.9,8%,-2,10%,-11,14%,0.6%
Cc1ccsc1/C=N/N1CCN(c2ccccn2)CC1,1.0,-10%,0,0%,-17,15%,/
CCOC(=O)c1cc(S(=O)(=O)NCC2CCN(Cc3cccc(C)c3)CC2)cn1C,/,11%,-13,1%,-7,-1%,/
CC(=O)Nc1ccccc1C(=O)C(=O)Nc1ccc(F)c(Cl)c1,0.5,7%,-26,-31%[inhibitor],7,10%,3.2%
O=C(c1cc(-c2ccc(Cl)cc2)on1)N1CCOCC1,0.5,13%,-8,-37%,/,5%,1.3%
COc1ccc2c(c1)[nH]c1c(=O)n(CCCn3ccnc3)cnc12,3.7,-8%,-7,-19%,-2,1%,-16%
CCC(CC)NC(=O)c1cccc([N+](=O)[O-])c1C,-0.7,1%,21,29%,27,15%,1.7%
CC(=O)c1cc(Cl)ccc1OCC(=O)Nc1cccc(S(=O)(=O)N2CCCC2)c1,/,-6%,-2,15%,1,/,0.7%
Cc1ccc(S(=O)(=O)CCN2CCC(O)(c3ccccc3)CC2)cc1,-22,9%,-9,27%,20,0%,1.2%
CNC(=O)C(=O)Nc1ccc(C)cc1C,-1.5,13%,0,5%,1,10%,-0.6%
COc1ccc(C)cc1S(=O)(=O)NC(C)c1cnn(-c2ccccn2)c1C (stereo not given),/,5%,9,-49%[inhibitor],/,/,-2.2%
O=[N+]([O-])c1ccc(C=Nc2cccc3ccccc23)s1,-2.4,-2%,27,16%,8,-2%,/
COc1ccc(NC(=S)N2CCCC(CO)C2)c(OC)c1 (stereo not given),1.9,4%,-5,-3%,-2,-15%,/
CN(C)S(=O)(=O)c1ccc(Cl)c(-c2nnc3n2CCCCC3)c1,3.7,9%,-5,-37%[inhibitor],3,9%,/
Cc1nc2ccccn2c1C(=O)CSc1ccccc1,0.4,-14%,-4,15%,-17,11%,/
Cn1c(CCc2ccccc2)nnc1SCC(=O)N1CCOCC1,2.8,7%,-5,-4%,-7,16%,-2.3%
c1ccc(NCCC2OCC3(CO2)COC(CCNc2ccccc2)OC3)cc1 (stereo not given),/,-7%,-2,7%,/,/,/
COc1ccc(C(=O)CC(=O)C(=O)Nc2ccc(Cl)cc2)cc1,-3.3,0%,-11,-20%,15,3%,/
COc1ccc(-c2sc3ccc(N4CCOCC4)cc3c2C#CC(C)(C)O)cc1,/,-13%,-13,/,-5,/,-21%
O=C(CSc1nc2ccc(Cl)cc2[nH]1)Nc1ccc2c(c1)CCC2,0.8,-8%,-6,-2%[15.4 µM],-13,1%,0.8%
COCCN1C(=O)N[C@@H](c2ccccc2)[C@H](C(=O)OC)[C@H]1C,1.3[11.7 µM],16%,0,-5%,/,34%,0.5%
COn1c(-c2ccccc2)nc2c1CCc1nonc1-2,0.7,0%,4,5%,3,12%,-21%
O=C(c1ccc(NC2=NC3CS(=O)(=O)CC3S2)cc1)N(CCO)Cc1ccccc1 (stereo not given),/,10%,-11,8%,-3,8%,0.3%
CCOC(=O)CNC(=O)CSc1nnc(-c2ccccc2OC)n1CC,0.0,7%,-5,16%,-3,9%,-3.0%
# Following part:
SMILES,Menin-MLL FL inh,gsp antag,D2 potentiator,gsp agonist,TRPV1 potentiator,Sfp inh,ClpP mod
CNc1ncc(Cc2ccccc2)s1,/,9%,4,-15%,-11,21%,0.9%
COc1cc(SC)ccc1C(=O)Nc1cccc(S(=O)(=O)NC2=NCCC2)c1,/,-28%,-3,?,2,/,-3.4%
CC(NC(=O)C12CC3CC(CC(O)(C3)C1)C2)c1ccc(Cl)cc1Cl (stereo not given),0.7,-7%,-3,-32%,-4,-18%,/
CC1=NOC(=O)/C1=C\c1ccc(-c2ccc(Cl)cc2Cl)o1,2.3,-4%,7,-1%[15.4 µM],-13,45µM*,-0.2%
Cc1ccc2c(c1)[C@H]1[C@H](CO2)[C@H](c2ccccc2)[C@]2(C)C(=O)Nc3ccc(F)cc3C(=O)N12,/,-26%,-37,/,/,/,-30%
COc1nc(N(C)C)nc(N(OC)S(=O)(=O)c2ccccc2Cl)n1,5.4,-4%,-2,-18%,6,9%,-6.0%
CC(Cc1cccnc1)NC(=O)c1ccccc1OC1CCN(S(C)(=O)=O)CC1 (stereo not given),-1.0,5%,-5,3%,-15,11%,-0.1%
O=C(CN1C(=O)c2ccccc2S1(=O)=O)NCc1cccnc1,0.9,0%,-5,0%,23,15%,0.6%
CC(Sc1ccccc1F)C(=O)Nc1cccc(S(=O)(=O)N2CCOCC2)c1 (stereo not given),/,-10%,-1,14%,/,/,-0.6%
O=C(Nc1ccccc1N1CCN(C(=O)c2ccccc2)CC1)c1cc(Br)ccc1Cl,-7.1,-21%,-14,-65%[inhibitor],-5,9%,-12%
CC(C)[C@H](NC(=O)N1CC(=O)Nc2ccccc21)C(=O)N[C@H](Cc1ccccc1)C(=O)O,0.2,8%,-22,/,-12,20%,0.4%
COCCN(Cc1cccs1)S(=O)(=O)c1ccc(-c2ccc(=O)[nH]n2)s1,/,7%,-2,-22%,23,7%,-4.7%
CC(OC(=O)c1ccc(S(=O)(=O)NCc2ccco2)cc1)C(=O)Nc1ccccc1 (stereo not given),/,-12%,-10,24%,/,/,-16%
CN(Cc1cnccn1)Cc1cn(Cc2ccccc2)nc1-c1ccc2c(c1)OCO2,1.3,-11%,-13,3%[15.4 µM],-10,2%,/
CCOC(=O)c1cc2c(=O)n3ccccc3nc2n(CC2CCCO2)c1=NC(C)=O (stereo not given),1.1,-12%,0,11%,6,7%,60%
CCc1ccc(C(C)NC(=S)NC2CCCCC2)cc1 (stereo not given),-1.1,-13%,-13,13%,1,11%,1.2%
CC(C)C(c1nnnn1C1CCCC1)N1c2ccccc2CC1C (stereo not given),0.6,-29%,-5,2%,-17,6%,-15%
